Autofluor counter: flagged as autofluorescent in microsphere protease counterscreen; compound autofluorescence counterscreen, microsphere flow cytometry; hits give high values; fluorescence intensity (test concentration not listed); hit rate 3.1% among 360,000; AID 624483;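 active means at least 3 SD above the mean of all compounds, about 16000 in these data; inconclusive means too few beads counted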;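 further: 100 nL of 1 mM stock went into each well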
Sa ugtP lethal: compounds lethal to S. aureus RN4220 ugtP deletion mutant | hit rate 0.54% among 330,000 | growth inhibition, % (no concentration beside the values) | AID 1259309 | OD600 growth, 16 h; some inactives read as strong as hits;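 active means z-score under -3 and OD600 up to 0.15 on both plates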;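 further: plate controls were untreated wells for no effect and antibiotic for full effect; wells of about 80 µL received 100 nL stock; the first replicate is given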
Mtb hypoxia rep: reduces hypoxia-regulated biosensor signal in M. tuberculosis | AID 1159583 | hit rate 0.1% among 300,000 | fluorescence inhibition, % (no concentration beside the values) | M. tuberculosis hypoxia-regulated fluorescent reporter, fluorescence;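 active means 35 to 45% if threefold the growth effect, above 45% if 1.5-fold the growth effect; inactive means the rest, general growth blockers included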;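 further: wells of about 50 µL received 100 nL stock; 0% = vehicle wells and 100% = reference inhibitor wells; whole bacteria with a GFP reporter of the hypoxia response; strong numbers were not always called active; many hits fall short of the cut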
Sa RN4220 lethal: kills Staphylococcus aureus RN4220; S. aureus RN4220 growth, OD600, 16 h; inhibition, % (no concentration beside the values); AID 1259311; hit rate 0.33% among 330,000;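 active means z-score of -3 or lower and OD600 up to 0.18 on both plates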;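 further: plate controls were untreated cells for no effect and reference antibiotic for full effect; stock transfer was 100 nL into about 80 µL; one replicate is shown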
BJeLR viability: BJeLR cell viability loss; BJeLR (HRASV12) viability, CellTiter-Glo ATP luminescence, 48 h; reference of the scale not given here; hit rate 0.17% among 300,000; inhibition, % (test concentration not listed);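 active means replicate mean above 50%; inconclusive means above 50% but judged a plate artefact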;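 further: 50 nL library stock added to about 25 µL; numbers are from one replicate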
PrP UTR inh: inhibition of PrP 5' UTR reporter expression. cell-based PrP 5' UTR mRNA reporter, plate reader. inhibition, % (concentration not given with the values). hit rate 0.35% among 340,000;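 active means every replicate at 50% or more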;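 further: 0 = median of the neutral control wells; tested in H4 reporter cells; numbers are from one replicate; inactives centre near -14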
Mtb hypoxia rep growth: further read-out of Mtb hypoxia rep, marked with its call; growth inhibition, %; measured here: M. tuberculosis growth (absorbance);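 0% = vehicle and 100% = reference antibiotic; read after six days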
An asterisk follows results filed as active; ? = inconclusive; / = not tested or not shown; & = joins results of further samples. Hits appear at their usual frequency; any-hit rate near 4%.

molecule,Autofluor counter,Sa ugtP lethal,Mtb hypoxia rep,Mtb hypoxia rep growth,Sa RN4220 lethal,BJeLR viability,PrP UTR inh
CCC(SCC(=O)OC)C(=O)Nc1nnc(C(C)C)s1 (stereo not given),4558,4,11,5,-8.5,5,-6
COc1ccc(NS(=O)(=O)c2cc(NC(=O)CC(C)(C)C)ccc2N2CCCC2)cc1,8509,-7,-7,-5,-2.3,/,-16
Nc1cc(=O)[nH]c(SCC(=O)Nc2cccc(Cl)c2)n1,17592*,-4,-3,8,0.6,7,-9
O=C(CCN1C(=O)/C(=C/c2ccccc2)SC1=S)NCCCN1CCOCC1,5974,6,-4,8,-0.2,-9,-19
N#C/C(=N\Nc1ccc(Cl)cc1)C(=O)c1ccccc1,3446,/,/,/,/,24,-21
COC(=O)c1cc(S(=O)(=O)N2CCN(c3cccc(C)c3C)CC2)c[nH]1,6179,-11,8,-7,-5.1,7,-13
CCC(=O)Nc1cc(C)c(NC(=O)CCc2ccccc2)cn1,2773,5,3,4,0.7,4,-14
COC(=O)C1=C(c2c(C)noc2C)C[C@@H]2CC[C@H]1N2C(=O)NCCO,4042,-7,-2,4,-12,/,-20
Cc1ccc(NC(=S)NNc2ncc(C(F)(F)F)cc2Cl)c(C)c1,4872,-2,/,/,4.6,8,2
Cn1ccsc1=NC(=O)c1ccc(CS(C)(=O)=O)cc1,5803,0,-5,4,4.1,-3,-41
Oc1ccccc1CNc1nc2ccccc2n1CCN1CCCCC1,6050,1,/,/,2.5,12,-10
O=C(NCCNC(=O)c1ccco1)c1ccco1,5228,3,7,-3,4.5,-3,6
COc1ccc(C)cc1S(=O)(=O)NCC(c1ccco1)N1CCc2ccccc2C1 (stereo not given),6097,11,6,-1,6.9,2,-23
FC(F)(F)c1cccc(NC(=S)Nc2cccc(NC(=S)Nc3cccc(C(F)(F)F)c3)n2)c1,3393,13,13,4,50,1,-7
Cc1cc(N2CCCCCC2)nc2ccc(F)cc12,19022*,17,9,1,19,-2,-12
CC(=O)c1ccc(S(=O)(=O)N2CCCC(N(C)CCc3ccccn3)C2)cc1 (stereo not given),/,3,3,5,-0.5,6,-24
COc1ccc(C)cc1-n1[nH]nnc1=S,4042,-6,2,-1,-1.3,-5,-28
CCC1(C)Cc2c(sc3nnn(CC(=O)Nc4ccccc4C)c(=O)c23)CO1 (stereo not given),10626,2,-1,4,-1.4,8,/
CCCN(CC(=O)Nc1ccccc1OC)C(=O)CN1C(=O)NC2(CCCCC2)C1=O,/,-6,1,-7,-3.9,/,12
COc1ccc(Cl)cc1N1C(=NC(=O)C2CCCCC2)SC2CS(=O)(=O)CC21 (stereo not given),6306,2,-16,-14,6.0,-9,-3
CC(C)Oc1ccc(N2CC(C(=O)Nc3ccc4c(c3)OCO4)CC2=O)cc1 (stereo not given),5705,5,/,/,-1.8,-4,-21
Cc1c(OCC(=O)NC(Cc2ccc(Cl)cc2)C(=O)O)ccc2c(-c3ccccc3)cc(=O)oc12 (stereo not given),4986,-2,/,/,4.0,14,-8
O=C(Nc1ccc(Cl)cc1)C1C2C=CC3(O2)C1C(=O)N(CCCN1CCCCC1)C3C(=O)NC1CCCCC1 (stereo not given),3603,2,3,-3,-0.6,-2,-11
Cc1cccc2c1N(N=O)CCC2,2059,-1,11,5,6.8,-15,-10
Cc1nn(-c2ccccc2)c(C)c1/C=N/NC(=O)c1ccc(F)cc1,6309,/,/,/,/,0,-23
O=C(Cn1cc(C(F)(F)F)ccc1=O)NN=Cc1cccc(Cl)c1,/,5,11,4,6.4,/,/
O=C(CSCc1nc2ccccc2[nH]1)N1CCN(c2cccc(Cl)c2)CC1,?,-4,-1,1,-5.9,-9,-17
O=C1CC(N2CCSCC2)C(=O)N1c1ccc(Br)cc1 (stereo not given),4458,8,12,7,5.8,-3,-7
COC(=O)CCCC1=CC2=CC(=O)C(C)(OC(=O)c3cccs3)C(=O)C2=CN1CC(C)C (stereo not given),3620,-1,20,11,3.9,12,-10
O=C(c1cn(CC2CCCCC2)nn1)N1CCN(c2ccc(F)cc2)CC1,5261,/,/,/,/,9,-7
N#Cc1nc(-c2ccco2)oc1NCc1ccco1,5739,0,7,6,4.4,-4,-13
Cc1ccc(S(=O)(=O)N2CCN(S(=O)(=O)N(C)C)CC2)cc1,3544,6,1,0,0.5,5,-6
Cc1cc(CNC(=O)C2CCC(=O)N(CCc3cccc(F)c3)C2)nn1C (stereo not given),5266,2,0,6,1.9,2,-10
N=c1c(C(=O)NCc2ccccc2)cc2c(=O)n3ccccc3nc2n1CCCN1CCOCC1,4753,-2,/,/,1.2,/,6
O=C1CCCc2c1[nH]c1c(Br)cccc21,2471,4,/,/,5.6,2,-26
Cn1cc(NC(=O)OCc2ccc(Cl)cc2)c(C(F)(F)F)n1,4573,0,2,5,5.8,1,-10
CC(C)c1ccccc1NC(=O)CNC(C)c1ccc(F)cc1 (stereo not given),4923,3,4,-6,6.6,-1,-12
Cc1ccc(S(=O)(=O)NCc2ccccc2)cc1C(=O)N(C)Cc1ccc(F)cc1,5014,10,10,1,0.7,0,-11
C=CCn1cc(Cl)c(=O)n(CC=C)c1=O,9680,2,3,2,2.7,-11,-7
Cc1cc(/C=C2\C(=O)NC(=O)N(c3cccc(Br)c3)C2=O)c(C)n1C,2594,0,-5,6,-1.7,8,-7
Cc1cccc(N2CCN(S(=O)(=O)c3cc4c(cc3Cl)NC(=O)CO4)CC2)c1C,6274,2,-6,-1,-1.9,-9,-2
Cc1nc(COc2cccc(Cl)c2)sc1C(=O)/C=C/N(C)C,6268,3,3,11,8.3,-11,-29
O=C(NN1CCOCC1)c1ccc(Cl)cc1Cl,4665,3,2,-10,-1.5,7,-20
Cn1cc(/C=N/NC(N)=S)c2ccccc21,5448,/,/,/,/,1,-13
Cc1ccc(SCCC(=O)OCC(=O)NCC2CCCCC2)cc1,3635,0,6,-8,-0.5,5,-9
CC(C)(C)C(=O)Nc1ccc(NC(=O)C(C)(C)C)cc1,5019,-9,11,-1,4.7,2,-18
Cc1ccc(-n2ncc3c2CCCC3NC(=O)c2ccoc2)cc1C (stereo not given),5439,-6,2,4,3.6,-7,-15
Cn1c(CCN2CCCCC2)nc2cc(NC(=O)NC3CCCCC3)ccc21,3168,-6,-80,-3,6.4,0,10
COc1ccc(OC)c(S(=O)(=O)Nc2ccc(OCC(=O)O)cc2)c1,4964,7,/,/,0.5,5,-23
CC(C)(C)NC(=O)Cn1nnc(-c2ccccc2NC(=O)c2ccco2)n1,3845,2,8,3,0.8,-3,-11

Additional entries.
molecule,Autofluor counter,Sa ugtP lethal,Mtb hypoxia rep,Mtb hypoxia rep growth,Sa RN4220 lethal,BJeLR viability,PrP UTR inh
Cc1cc(C)nc(N2Cc3ccccc3C2=N)n1,4053,2,-7,-5,3.2,5,-10
CCCSP1(=S)NCCCO1 (stereo not given),2982,-4,8,5,-12,-4,0
C[C@H](CO)N1C[C@H](C)[C@@H](CN(C)S(=O)(=O)c2ccc(F)cc2)Oc2ccc(NS(=O)(=O)c3ccc(F)cc3)cc2C1=O,3837,-9,7,6,-15,/,-16
CCOC(=O)C(CCCCC(NC(C)=O)(C(=O)OCC)C(=O)OCC)(NC(C)=O)C(=O)OCC,?,8,10,4,3.0,-6,-19
C=CCNS(=O)(=O)c1ccc(OCC(=O)OCC)cc1,7973,10,13,-3,2.3,2,-11
Cc1ccc(-c2nn(Cc3ccccc3)cc2C=O)cc1C,9145,10,8,-5,1.6,-2,-16
CCn1c(SCc2ccccc2Cl)nc2ccccc21,2514,91*,/,/,0.2,-3,-23
CSCCC(NC(=O)c1ccccc1)C(=O)N1CCN(C(C)=O)CC1 (stereo not given),3192,7,10,2,4.1,/,-21
CC(C)Cn1cnc2c(c(-c3ccccc3)c(-c3ccccc3)n2Cc2ccco2)c1=N,3014,/,/,/,/,6,2
COc1cc2c(cc1OC)/C(=C/C(=O)c1ccc(F)cc1)NCC2,4193,5,9,5,2.4,-12,2
Cc1ccccc1OCc1n[nH]c(=S)n1Cc1ccccc1,2828,-12,-1,0,0.9,-9,-58
CN1CC(c2ccc(C#N)cc2)C2(COc3ccccc3C2=O)C12C(=O)Nc1ccccc12 (stereo not given),19424*,-12,-3,4,18,-3,-27
CCCc1cc(=O)[nH]c(SCC(=O)N2CCN(S(=O)(=O)c3ccc(Cl)cc3)CC2)n1,2699,-1,11,7,3.2,-23,-24
Cc1nnsc1Sc1cccc(C(F)(F)F)c1,5767,0,-11,-6,0.7,2,-11
CC(=NNS(=O)(=O)c1ccc(C)cc1)c1ccc(NC(=O)C(F)(F)F)cc1,/,1,9,2,1.4,/,/
Cc1ccc(C(=O)NC(C)c2ccc(S(N)(=O)=O)cc2)s1 (stereo not given),3469,5,10,8,3.6,-9,0
C#CCNc1ccc([N+](=O)[O-])cc1,2195,-1,3,5,2.7,-8,-17
N#Cc1c(/N=C/c2cccs2)sc2c1CCC2,8745,/,/,/,/,-6,-48
COc1ccccc1N(C(C)=O)c1nc(C)cc(C)c1C#N,4819,5,/,/,1.6,-3,-5
C=C(C)C(=O)Nc1cccc(C2=NOC3(C2)CC(C(N)=O)N(C(=O)C=CCC)C3)c1 (stereo not given),/,-17,1,7,0.3,/,/
CCOC(=O)C(=O)Nc1sc(C(=O)N(CC)CC)c(C)c1C#N,3968,0,6,19,3.2,4,-3
O=C(NCCCNC(=O)c1cnccn1)c1ccc(Cl)c(Cl)c1,3742,0,-7,-3,-8.1,1,-7
O=C1NC(c2ccc3c(c2)OCO3)Nc2ccccc21 (stereo not given),4673,-5,/,/,-0.9,-5,-59
O=C(CN1CCN(c2ncccn2)CC1)N1CCc2ccccc21,2345,6,-1,-5,1.9,-4,-37
Cn1c(-c2ccc[nH]c2=O)nc2cc(Cl)ccc21,3976,1,3,9,4.1,2,-10

Some of the entries so far, as labelled records:
Molecule: CCOC(=O)C(=O)Nc1sc(C(=O)N(CC)CC)c(C)c1C#N
  Autofluor counter: 3968
  Sa ugtP lethal: 0
  Mtb hypoxia rep: 6
  Mtb hypoxia rep growth: 19
  Sa RN4220 lethal: 3.2
  BJeLR viability: 4
  PrP UTR inh: -3

Molecule: O=C(NCCCNC(=O)c1cnccn1)c1ccc(Cl)c(Cl)c1
  Autofluor counter: 3742
  Sa ugtP lethal: 0
  Mtb hypoxia rep: -7
  Mtb hypoxia rep growth: -3
  Sa RN4220 lethal: -8.1
  BJeLR viability: 1
  PrP UTR inh: -7

New compounds follow:
molecule,Autofluor counter,Sa ugtP lethal,Mtb hypoxia rep,Mtb hypoxia rep growth,Sa RN4220 lethal,BJeLR viability,PrP UTR inh
CCN(Cc1cc2cc(C)ccc2[nH]c1=O)S(=O)(=O)c1ccccc1,16649*,8,-2,-6,9.4,-4,-5
COc1cc(NC(=O)COC(=O)CNS(=O)(=O)c2ccc(F)c(F)c2F)cc(OC)c1,1996,10,6,2,3.0,7,-9
CC(CCc1ccccc1)=NNC(=O)COc1ccccc1C,/,7,12,3,2.9,/,/
Cn1c(C(=O)O)c(CC(=O)N2CCN(Cc3ccccc3)CC2)c2ccccc21,2812,4,3,10,-0.1,5,1
COc1ccc(/C=N/NC(=O)CCn2nc(C)cc2C)cc1O,4387,/,/,/,/,-2,-13
CCC1(c2ccccc2)NC(=O)N(CC(=O)Nc2ccc(S(N)(=O)=O)cc2)C1=O (stereo not given),3675,6,-5,-1,-0.1,-13,-19
CCOC(=O)C1C2COc3ccc(Br)cc3C2N2C(=O)N(c3ccc(C)cc3)C(=O)[C@@]12C (stereo not given in full),/,-21&-22,12&-9,10&-6,1.4&-2.9,/,/
CC(C)C(=O)Nc1ccc2oc(-c3cc(F)c(F)cc3Cl)nc2c1,24150*,-3,4,11,0.9,1,-41
CCOC(=O)C1CCN(C(=O)CCNS(=O)(=O)c2cc(Br)cnc2N)CC1,5383,13,6,5,4.9,-15,-16
O=C(O)c1cc(NC(=O)c2ccc([N+](=O)[O-])cc2)cc(NC(=O)c2ccc([N+](=O)[O-])cc2)c1,3965,11,-4,-3,-3.4,-1,-24
